Screening data from PubChem.
Mtb hypoxia inh – PubChem AID 1159583; M. tuberculosis hypoxia-regulated fluorescent reporter, fluorescence; fluorescence inhibition, % (test concentration not listed); hit rate 0.1% among 300,000;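 active = 35 to 45% if threefold the growth effect, above 45% if 1.5-fold the growth effect; inactive = the rest, general growth blockers included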;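 also: wells of about 50 µL received 100 nL stock; 0% = vehicle wells and 100% = reference inhibitor wells; whole bacteria with a GFP reporter of the hypoxia response; strong numbers were not always called active; many hits fall short of the cut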
BJeLR viability – MLPCN primary cell-based screen for lethality selective to Ras in HRASV12 cells; BJeLR (HRASV12) viability, CellTiter-Glo ATP luminescence, 48 h; reference of the scale not given here; inhibition, % (test concentration not listed); hit rate 0.17% among 300,000;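 active = replicate mean above 50%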;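 also: 50 nL library stock added to about 25 µL; numbers are from one replicate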
Bead autofluor – compound fluorescence in toxin protease inhibitor counterscreen; AID 624483; hit rate 3.1% among 360,000; fluorescence intensity (no concentration beside the values); compound autofluorescence counterscreen, microsphere flow cytometry; stronger effect = higher value;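 active = at least 3 SD above the mean of all compounds, about 16000 in these data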;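 also: 100 nL of 1 mM stock went into each well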
PrP 5UTR inh – inhibition of PrP 5' UTR reporter expression | cell-based PrP 5' UTR mRNA reporter, plate reader | inhibition, % (test concentration not listed) | hit rate 0.35% among 340,000 | AID 488862, 2010;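 active = every replicate at 50% or more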;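 also: 0 = median of the neutral control wells; tested in H4 reporter cells; numbers are from one replicate; inactives centre near -14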
ugtP null kill – growth inhibition of ugtP-null S. aureus, primary screen, RN4220 ugtP deletion, OD600. AID 1259309, 2017. growth inhibition, % (test concentration not listed). hit rate 0.54% among 330,000. 16 h; some inactives read as strong as hits;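 active = z-score under -3 and OD600 up to 0.15 on both plates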;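 also: plate controls were untreated wells for no effect and antibiotic for full effect; wells of about 80 µL received 100 nL stock; the first replicate is given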
RN4220 kill – growth inhibition of S. aureus RN4220, primary screen, OD600. 16 h. inhibition, % (concentration not given with the values). hit rate 0.33% among 330,000;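 active = z-score of -3 or lower and OD600 up to 0.18 on both plates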;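 also: plate controls were untreated cells for no effect and reference antibiotic for full effect; stock transfer was 100 nL into about 80 µL; one replicate is shown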
Mtb hypoxia inh growth – further read-out of Mtb hypoxia inh, marked with its call; growth inhibition, %; measured here: M. tuberculosis growth (absorbance);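 0% = vehicle and 100% = reference antibiotic; read after six days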
Numbers without * were called inactive; . = no result given.

Results follow in this order: Mtb hypoxia inh, Mtb hypoxia inh growth, BJeLR viability, Bead autofluor, PrP 5UTR inh, ugtP null kill, RN4220 kill
> O=C(O)c1ccc(N2CCCC2=O)cc1
    ., ., -1, 4633, -10, 5, 1.4
> COC(=O)CSc1nc2cc3c(cc2cc1C)OCO3
    14, 18, 9, 3898, -15, 16, 5.1
> Cc1nc2ccccc2c(=O)n1NC(=O)c1c(O)c2c(n(CC(C)C)c1=O)CCCC2
    1, 13, 5, 19971*, -2, -23, 4.0
> Cc1cccc(N(CC(=O)NC2CCCCC2)C(=O)CCC(=O)Nc2ccccn2)c1
    ., ., -4, ., ., -7, 3.9
> O=C(CCNc1ccc(Cc2ccncc2)cc1)c1ccc([N+](=O)[O-])cc1
    -2, 5, -2, 2305, -6, 2, 2.0
> COC(=O)N/N=C/c1sc(N2CCCCC2)nc1-c1cccs1
    ., ., -4, 4167, -8, ., .
> COc1ccc(OC)c(-c2csc(NC(=O)CSc3nnnn3C)n2)c1
    -10, -9, 2, 6311, -21, -4, -2.4
> CC(OC(=O)CCc1nc2ccccc2c(=O)[nH]1)C(=O)NCc1ccc2c(c1)OCO2 (configuration not stated)
    -12, -11, 6, 9954, -6, -3, 0.3
> OC1(c2nc3ccccc3[nH]2)CCCCC1
    -3, 0, -5, 3104, -25, 2, 3.8
> Cc1oncc1C(=O)NC(C)C
    ., ., -3, 3069, -5, 4, 3.9
> CC(=O)Nc1ccc(NC(=O)CN2CCN(c3ccccn3)CC2)cc1
    19, 10, -8, 3973, -18, 7, 4.2
> Cc1cc(NC(=O)c2ccc(S(=O)(=O)N3CCCC3)cc2)nc2c1c(=O)oc1ccccc12
    ., ., 0, 2655, -19, -2, 4.4
> CCOC(=O)C1(CCCc2ccccc2)CCN(CCCn2cccn2)CC1
    9, 3, -5, 2177, -6, 8, 3.3
> CCc1cc2cc(C(=O)N3CCN(Cc4ccccc4)CC3)sc2s1
    ., ., -8, 3395, -12, ., .
> CCOc1ccc2c(c1)C(C)=CC(C)(C)N2S(=O)(=O)c1ccc(F)cc1
    2, 6, 0, 4600, 14, -12, 3.8
> O=C1CCC/C1=C/Nc1ccc(Cl)cc1
    15, 6, -2, 2603, -5, 6, 6.1
> CN1CCN(NC(=O)CN2C(=O)/C(=C/c3ccccc3Cl)SC2=S)CC1
    4, -1, -2, 16697*, -13, 8, 6.2
> Cc1cccc(CSC2=NCCN2C(=O)c2ccco2)c1
    ., ., 2, 4067, 5, -7, 7.2
> O=C(NCc1ccco1)Nc1cccc(-c2ccccc2)c1
    23, 14, ., 3635, -22, 5, -0.1
> Cc1ccc(NCc2nnc(SCC#N)o2)c(C)c1
    7, 6, -1, 6132, -4, 1, -2.1
> COc1ccc(OC)c(NC(=O)CN2C(=O)NC3(CCCc4ccccc43)C2=O)c1 (configuration not stated)
    3, 0, ., 3541, -4, 2, -1.7
> C[C@@H]1CN(S(=O)(=O)C(C)(C)C)[C@H](CCO)/C1=C\c1ccccc1
    -9, 2, ., 3680, 37, -3, 4.6
> CCC(CC)C(=O)Nc1nnc(S(=O)(=O)N2CCCCCC2)s1
    6, 3, 2, 6248, -17, 9, 2.2
> Cc1ccc(CSCC(=O)NCc2cccs2)cc1
    7, 5, 7, 4422, -53, 0, 0.8
> CC1=C(C(=O)OC2CCCCC2)C(c2ccc(C)o2)C2=C(CCCC2=O)N1 (configuration not stated)
    3, -6, -4, 2537, -3, -4, -2.3
> Cc1ccc(-n2cc(CNC(C)Cc3cnccn3)c(-c3cccc(C)c3)n2)cc1 (configuration not stated)
    -13, -7, -2, 4675, -13, 2, 8.5
> CC(=O)c1sc(-c2ccc(F)cc2F)nc1C
    0, 9, 2, 6742, -16, -4, 8.8
> CC1(C)Cc2nc3sc4c(OCc5ccccc5)ncnc4c3cc2CO1
    3, 9, -13, 3680, -22, -8, 13
> O=C(NCc1ccccn1)c1ccc(NC(=O)c2ccco2)cc1
    ., ., 3, 4274, -29, 0, 0.8
> COc1cc(NC(=O)CSc2nc3c(C)ccc(C)c3cc2C)c(C(=O)O)cc1OC
    4, 2, 4, 2019, 42, 16, 13

The final four compounds of the section above open the next one:
Results follow in this order: Mtb hypoxia inh, Mtb hypoxia inh growth, BJeLR viability, Bead autofluor, PrP 5UTR inh, ugtP null kill, RN4220 kill
> CC(=O)c1sc(-c2ccc(F)cc2F)nc1C
    0, 9, 2, 6742, -16, -4, 8.8
> CC1(C)Cc2nc3sc4c(OCc5ccccc5)ncnc4c3cc2CO1
    3, 9, -13, 3680, -22, -8, 13
> O=C(NCc1ccccn1)c1ccc(NC(=O)c2ccco2)cc1
    ., ., 3, 4274, -29, 0, 0.8
> COc1cc(NC(=O)CSc2nc3c(C)ccc(C)c3cc2C)c(C(=O)O)cc1OC
    4, 2, 4, 2019, 42, 16, 13
> CC(=O)c1c(C(C)=O)c(C)n(Cc2ccc(Cl)cc2)c1C
    ., ., -9, 3747, -10, -3, 3.1
> O=C(CCc1ccccc1)Nc1ncn[nH]1
    ., ., 1, 3649, -17, 10, 4.9
> CCN(CC)CCNCc1ccc(-c2ccc(Cl)cc2)o1
    ., ., -5, 8328, -18, 4, 1.2
> COc1ccc(S(=O)(=O)N2CCN(Cc3ccccc3)CC2)cc1
    14, 3, -3, 8586, -13, 13, 4.0
> O=C(NCCc1ccc(F)cc1)c1ccc([N+](=O)[O-])cc1
    -1, 11, 4, 4302, -52, 3, 2.4
> COC(=O)C1CC(=NNS(=O)(=O)c2ccc(C)cc2)c2ccccc2C1 (configuration not stated)
    -5, 2, ., ., ., 3, 0.7
> COc1cccc(CNC(=O)C2CCN(S(=O)(=O)N3CCC(C)CC3)CC2)c1
    3, -1, 12, 5633, -16, 3, 0.5
> Cc1nc(SCC(=O)O)c(C#N)c(-c2ccco2)c1C(=O)N(C)C
    3, 1, -2, 4719, -27, 3, 5.5
> CC1(c2ccccc2)NC(=O)N(CC(=O)NCC2CCCO2)C1=O (configuration not stated)
    7, 4, ., 3858, -19, 2, 1.6
> Cc1ccc(C(=O)NCc2occc2C(=O)O)o1
    12, 8, -4, 3726, -18, 2, 1.2
> O=C(N/N=C/c1coc2ccccc2c1=O)c1ccncc1
    ., ., 0, 5175, -19, ., .
> O=C(CC1S/C(=N/N=C/C=C/c2ccccc2)NC1=O)Nc1ccc(Cl)c(Cl)c1 (configuration not stated)
    ., ., -11, 8803, -35, ., .
> CCOc1ccc(NC(N)=O)cc1
    5, 0, -5, 11012, -12, -5, 3.8
> COc1ccc(CSC(=N)N)cc1[N+](=O)[O-]
    3, 11, -1, 2880, -14, -3, -4.2
> CCOC(=O)c1c(CC(C)C)csc1/N=C/C1C(=O)CC(C)(C)CC1=O
    ., ., 5, 4499, -9, ., .
> Cc1cccnc1Nc1nc(-c2ccc(O)cc2)cs1
    2, 3, -1, 11049, -80, -14, 20
> COc1ccc(/C=C2/N=C(SC3CCOC3=O)N(c3cccc(OC)c3)C2=O)cc1 (configuration not stated)
    -1, 3, -3, 2078, -2, -18, 7.1
> Cc1cccc(OCC(=O)O/N=C(\N)c2ccccn2)c1
    ., ., -1, 9627, -82, ., .
> CSc1nc(=S)n(-c2ccccc2)c(C)c1C(C)=O
    10, 13, 0, 3769, -8, -6, 1.4
> Cc1ccccc1-c1nc2cc(Cl)ccc2o1
    16, 13, 3, 3842, -132, 53, 12
> C/C(=N\NC(=O)c1ccccc1-n1cccc1)C1CC1
    ., ., 2, 1877, -8, ., .
> CCN(c1cccc(C)c1)S(=O)(=O)c1ccc(OC)c([N+](=O)[O-])c1
    4, 2, -3, 4724, -14, -1, 11
> O=C(CSc1nnnn1C1CCCCC1)NCc1ccco1
    ., ., -7, 4329, 0, 2, 5.0
> CNC(=S)N(Cc1cccs1)Cc1cc2cc(OC)ccc2[nH]c1=O
    -13, -8, -5, 2483, -13, -1, 1.1
> COc1ccc(C(=O)NCC(=O)OCC(=O)N2N=C(c3ccc(Cl)cc3)CC2c2ccco2)cc1OC (configuration not stated)
    6, -2, -2, 3696, 4, -6, -4.2
> N#C/C(=C\c1ccc2c(c1)OCCO2)C(=O)NC1CCCCC1
    11, 7, -19, 2043, -16, 1, 3.4
> CCOc1ccc(S(=O)(=O)N2CCC(C(=O)OC(C)C(=O)N(C)C3CCCCC3)CC2)cc1 (configuration not stated)
    5, -3, -6, 4328, 3, 11, 1.0
> CC(C)CNC(=S)N(CCCO)Cc1cc2cc3c(cc2[nH]c1=O)OCCO3
    1, -1, -12, 3866, -5, 1, 3.2
> COC(=O)c1c(C)oc2ccc(N(C(C)=O)S(=O)(=O)c3ccccc3)cc12
    3, 1, 0, 4204, -16, 6, 7.3
> O=C(CSc1nncn1-c1ccccc1)Nc1ccc(F)cc1F
    4, -2, -5, 5172, -11, 10, 4.1
> COc1ccc(OC)c(S(=O)(=O)Nc2ccc3c(c2)C(=O)OC3)c1
    -4, 0, -4, ., -10, 6, 5.0
> CCOC(=O)CN1NC2(CCCCCC2)NC1=S
    5, 4, 3, 3885, -21, 5, 4.9
> COc1ccc(N(Cc2ccco2)C(=O)c2ccccc2F)cc1OC
    ., ., 9, 3694, -21, -3, 7.7
> COc1cc(C(=O)Nc2cc(C(F)(F)F)ccc2-n2cncn2)cc(OC)c1OC
    2, 9, -7, 2281, -116, 1, -0.2
> O=C(c1ccc(S(=O)(=O)N2CCOCC2)cc1)N1CCN(c2ccc(F)cc2)CC1
    7, 9, -1, 2803, 7, 5, 3.0
> CCOC(=O)C1=C(C)NC2=C(C(=O)CCC2)C1c1cccnc1 (configuration not stated)
    -8, 5, -4, 23612*, 17, -6, 0.6
> C/C(=N\NC(=S)Nc1cccc(C)c1)c1ccco1
    ., ., 2, 4472, -41, ., .
> Cc1ccc(NC(=O)CCn2ccc([N+](=O)[O-])n2)nc1
    -7, 6, 3, 2533, -21, 2, 0.1
> O=C(NCCCN1CCCCC1)C1CCCN(c2ncnc3c2nc2n3CCCCC2)C1 (configuration not stated)
    2, -8, -1, 5333, -17, 1, 0.0
> COc1ccccc1NC(=O)CSc1nnc(Cc2ccccc2)o1
    5, -4, 7, 7880, -8, 7, 4.7
> CCc1cccc(C)c1NC(=O)CCCC(=O)O
    0, -1, 1, 3366, -10, 12, 9.5
> Cc1[nH]n(-c2ccc(Cl)cc2)c(=O)c1C=Nc1ccc(S(=O)(=O)N2CCOCC2)cc1
    -2, 0, 3, 8026, -15, 7, 8.1
> CCC(NS(=O)(=O)c1ccc(OC)cc1)C(=O)NCCC1=CCCCC1 (configuration not stated)
    6, 0, -5, 10565, -21, 2, 1.9
> O=C(NC1CC1)C1=C[C@@H](c2coc3ccccc3c2=O)C[C@@H](OCc2ccc(CO)cc2)O1
    ., ., 11, 3627, -13, ., .
> [O-]C1=N/[N+](=C/c2ccc(Cl)cc2)CC1
    ., ., -1, 2829, -17, ., .
> CCCNC(=O)Nc1nc(CC(=O)OCC)cs1
    12, 8, 0, 2139, -10, 3, 3.1
> CCOC(=O)C(=NNc1ccc(Cl)cc1)c1csc(Nc2ccccc2)n1
    3, 0, ., ., ., -7, -8.7
> CCC(=O)Nc1ccc(C(=O)Nc2ccc(Br)cc2F)cc1
    7, 6, 4, 2227, -23, 5, 12
> CC1c2cc3c(cc2CCN1C(=O)c1ccc(Br)cc1)OCCCO3 (configuration not stated)
    -4, 7, 17, 5406, -17, -3, -3.7
> Cc1nc2ccc(S(=O)(=O)NC(C(=O)N3CCn4c3nc3ccccc34)C(C)C)cc2s1 (configuration not stated)
    ., ., 0, 5948, -11, 9, 5.7
> CC1Cc2cc(S(=O)(=O)N3CCC(C(=O)N(C)Cc4ccccc4)CC3)ccc2N1C(=O)C1CC1 (configuration not stated)
    10, 6, 1, 6387, -13, -3, 1.3
> Cc1[nH]n2c(=O)c3c(nc2c1-c1ccccc1)CCC3
    ., ., -9, 2232, -18, 7, 2.9
> COc1cc(Cl)c(C)cc1NC(=O)COC(=O)C1CC1C (configuration not stated)
    -1, -2, ., 5031, 0, -3, 0.6
> Cc1ccc(SCC(=O)Nc2ccc(C(=O)Nc3ccc(O)cc3)cc2)cc1
    11, 3, 4, 4086, -26, -2, 11
> Cc1ccc(SC(C)C(=O)NCc2ccc(F)cc2)cc1 (configuration not stated)
    9, 0, 3, 3162, -20, 3, 3.6
> O=C(CSc1nnnn1C1CCCC1)Nc1ccc(F)cc1
    7, 3, 1, 4204, -11, -2, 3.1
> CCn1cc(CN2CCc3c([nH]c4ccccc34)C2c2cccc(OC)c2)c(C)n1 (configuration not stated)
    5, 6, -2, 4636, -5, 11, 3.0
> C=CCOc1cccc(C2NC(=O)c3ccccc3O2)c1 (configuration not stated)
    2, 8, -17, 3833, -4, -6, 1.3
> COc1cc(OC)c(C#N)c(S(=O)(=O)Cc2ccccc2)c1
    -5, 14, -1, 3167, -10, 5, 10
